VDR inh – vitamin D3 receptor (human) inhibition; P11473; VDR-SRC2-3 peptide fluorescence polarization, 2 h; Potency, µM, without a hit: max response, negative = inhibition, most hits filed as inhibitors; 400,000 tested, 0.93% active; AID 504847; active = well fitted inhibition curve with a large enough effect; inconclusive = small, poorly fitted or top-dose-only effect, or another doubt; inactive = no such curve, though single readings can be large or run the other way; also: series mostly up to about 120 µM
Target sequence (P11473 whole entry, looked up): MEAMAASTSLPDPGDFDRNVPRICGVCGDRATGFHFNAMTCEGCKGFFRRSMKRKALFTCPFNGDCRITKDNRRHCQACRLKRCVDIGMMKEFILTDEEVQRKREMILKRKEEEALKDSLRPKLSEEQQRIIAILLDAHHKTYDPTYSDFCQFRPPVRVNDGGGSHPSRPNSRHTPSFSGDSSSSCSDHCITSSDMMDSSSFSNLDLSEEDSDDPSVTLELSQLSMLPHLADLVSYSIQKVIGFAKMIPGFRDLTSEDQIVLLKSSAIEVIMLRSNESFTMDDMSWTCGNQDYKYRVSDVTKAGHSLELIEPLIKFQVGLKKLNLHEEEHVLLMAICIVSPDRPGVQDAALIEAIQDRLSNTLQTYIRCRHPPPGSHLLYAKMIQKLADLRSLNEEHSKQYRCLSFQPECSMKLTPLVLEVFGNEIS
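Two reagent solutions held at 4 deg C in the dark were dispensed, compounds pinned at 23 nl, and the mixture incubated 2 h at room temperature. Read-out: fluorescence polarization of VDR–SRC2-3 peptide binding.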
* marks the source's active call; other numbers are inactive results; ? = inconclusive; & = joins results of further samples. % is scaled to controls: 0 for no effect and ±100 for the full control effect; potency is read from the fitted curve at half-maximal effect.

VDR inh	SMILES
-20.2%	CCOc1cc(/C=C/C(=O)c2ccc(OC)c(CN3CCOCC3)c2)cc(Br)c1O
-18.1%	CCc1ccc(N2CCN(CCNC(=O)Nc3ccccc3)CC2)cc1
-5.3%	Clc1cc(NCc2ccccc2)ncn1
20.8%	C=CCn1cccc(C(=O)Nc2ccc(Cl)cc2)c1=O
-7.1%	CCN1C(=O)[C@H]2[C@@H](c3ccc(-c4ccc(F)cc4)cc3)N[C@@](CC(C)C)(C(=O)OC)[C@H]2C1=O
9.7%	Cc1cc(F)ccc1NC(=O)CN1C(=O)CCc2cc(S(=O)(=O)N3CCOCC3)ccc21
-5.0%	CC(NC(=O)c1ccc(Cl)c(Cl)c1)c1ccc(-c2ccccc2)cc1 (centres undefined)
3.1%	CCOc1ccc(CCNC(=O)CS(=O)Cc2nc(-c3ccccc3Cl)oc2C)cc1OCC (centres undefined)
-9.4%	O=C(c1cc(-c2ccccc2O)on1)N1CCc2ccccc2C1
12.9%	COc1ccc(S(=O)(=O)N(CCCN2CCOCC2)Cc2cccc3ccccc23)cc1
-13.9%	Cc1ccc(NS(=O)(=O)c2cccc(C(=O)NCC(c3ccc(F)cc3)N3CCOCC3)c2)cc1 (centres undefined)
-4.1%	CCN(C(=O)c1c(-c2ccccc2)noc1C)c1ccccc1
-0.5%	Cc1ccccc1C(=O)Oc1cccc2c(O)cccc12
-5.4%	CN(Cc1ccc(F)cc1)C(=O)C(Cc1ccccc1)NC(=O)c1ccccc1 (centres undefined)
3.5%&-1.6%	Cc1ccc(NC(=O)c2cc(-c3ccc4c(c3)OCO4)on2)cc1

A portion of the results above:
VDR inh	SMILES
-20.2%	CCOc1cc(/C=C/C(=O)c2ccc(OC)c(CN3CCOCC3)c2)cc(Br)c1O
-18.1%	CCc1ccc(N2CCN(CCNC(=O)Nc3ccccc3)CC2)cc1

The main list resumes; the three compounds before the break are reprinted first.
VDR inh	SMILES
-0.5%	Cc1ccccc1C(=O)Oc1cccc2c(O)cccc12
-5.4%	CN(Cc1ccc(F)cc1)C(=O)C(Cc1ccccc1)NC(=O)c1ccccc1 (centres undefined)
3.5%&-1.6%	Cc1ccc(NC(=O)c2cc(-c3ccc4c(c3)OCO4)on2)cc1
3.5%	CC(C)n1cc(C(N)=S)c(=O)n(Cc2ccccc2)c1=O
8.7%	CC1=NN(/C(=N\c2nnc(C)s2)Nc2ccccc2)[C@H](c2ccc(C)cc2)S1
8.7%	CN=CC1=C(O)C(C(=O)OC)C(C)(C)CC1=O (centres undefined)
13.5%	Cc1ccccc1/C=N/Nc1ccc(Cl)nn1
2.5%	COc1ccc(NC(=O)COc2ccc3c(c2)CCC3)cc1S(N)(=O)=O
-14.5%	COC(=O)CN(c1ccc(Cl)cc1C)S(C)(=O)=O
-4.5%	C#CCOCCOCCOCCNc1nc(N2CCN(C(=O)Cn3cc(CCCCN)nn3)CC2)nc(N2CCN(C(=O)[C@H](C(C)C)n3cc(CCO)nn3)CC2)n1
-0.2%	Cc1cccc(N2CCN(S(=O)(=O)c3nnc(NC(=O)c4ccc(Cl)cc4)s3)CC2)c1
0.3%	Cc1cc(Br)ccc1NC(=O)C1CCCO1 (centres undefined)
-25.3%	COc1ccccc1NC(=O)C(C)OC(=O)/C(=C/c1ccccc1)NC(C)=O (centres undefined)
22.5%	COc1ccc(-c2cccc(NS(=O)(=O)c3cc(C)c(Cl)cc3C)c2)nn1
18.2%	CC(=O)Nc1ccc(NS(C)(=O)=O)cc1
-14.9%	CCc1ccc(Oc2c(C(F)(F)F)oc3c(CN4CCCC(C)C4)c(O)ccc3c2=O)cc1 (centres undefined)
5.6%	CC(C)[C@H]1COC(c2cccc([N+](=O)[O-])c2)=N1
-1.2%	O=C(O)c1ccccc1C(=O)NCCc1c(C(=O)O)[nH]c2ccc(Cl)cc12
1.5%	O=C(Nc1ccc(O)c(-c2nc3ccccc3s2)c1)c1cc(=O)c2ccccc2o1
9.7%	COc1ccc(Cl)cc1C(=O)Nc1nnn(C)n1
-12.9%	Cc1ccc2[nH]c(O)c(N=NC(=O)CCc3ccccc3)c2c1Br
1.1%	Cc1cc(C(=O)Nc2c(C)nn(Cc3ccccc3Cl)c2C)no1
8.6%	CCCN1C2CCCC1CC(NC(=O)c1ccc(F)cc1)C2 (centres undefined)
-9.3%	COCCNC(=O)CN(Cc1ccc(F)cc1)C(=O)CCC(=O)Nc1nccs1
-16.1%	CC(=O)N1CCc2cc(Br)cc(S(=O)(=O)N3CCN(c4cccc(C)c4)C(C)C3)c21 (centres undefined)
2.4%	COc1cc(/C=N/n2nnnc2N)ccc1OC(C)=O
-12.3%	CCOC(=O)c1c(C)n(-c2ccc(C)cc2)c2c(C(C(C)=O)C(=O)O)c(Br)c(O)c(O)c12 (centres undefined)
-12.3%	CC(NC(=O)c1ccc(Cl)cc1)C(=O)N1CCCCC1 (centres undefined)
-4.3%	Cn1nnc2cc(C(=O)Nc3ccccc3)ccc21
?	CCc1c(C)nc(N2CCN(c3ccc(Cl)cc3)CC2)[nH]c1=O
-1.0%	Cc1cc(NC(=O)CCC(=O)N(CC(=O)NC2CCCC2)c2cccc(C)c2C)no1
26.4%	CCc1cccc(OCC(=O)Nc2cc(Cl)ccc2-n2cncn2)c1
?	Cc1cccc(C)c1NC(=O)c1nc(S(=O)(=O)Cc2ccccc2)ncc1Cl
-11.0%	NNC(=O)C1SCCN1S(=O)(=O)c1ccc(Cl)cc1 (centres undefined)
3.3%	Cc1cc(F)ccc1NC(=O)Nc1ccc2c(c1)OCO2
-15.9%	COc1ccc(C(=O)/C=C/Nc2ccc(S(=O)(=O)Nc3nc(C)cc(C)n3)cc2)cc1OC
9.1%	O=C(Nc1ccc(F)cc1)c1cccc2c1C(=O)N(Cc1ccccn1)C2
-8.6%	CCOc1ccccc1C(=O)NCC(=O)OCC(=O)N1CCCC1
2.4%	COc1ccc(-c2csc(NC(=O)c3c(C)noc3C)n2)cc1F
-1.1%	COc1cccc(C(=O)Cn2c(=O)n(CC3CCCO3)c(=O)c3ccccc32)c1 (centres undefined)
-8.7%	O=S(=O)(N1CCCCC1)N1CCCN(S(=O)(=O)N2CCCCC2)CC1
11.9%	CC1CN(S(=O)(=O)c2cccc(C(=O)Nc3ccc(S(=O)(=O)Nc4ncccn4)cc3)c2)CC(C)O1 (centres undefined)
-20.9%	Cc1cc(O)c(Oc2cc(C)cc(O)c2O)c(O)c1
-6.5%	COCCCNC(=S)NCCNc1nc2c(C)c(C)ccc2cc1C#N
1.1%	CC1CN(C(=S)Nc2ccc(SC(F)F)cc2)CC(C)O1 (centres undefined)
-18.3%	COc1cccc(NC(=O)c2ccccc2N(Cc2ccccc2)S(C)(=O)=O)c1
1.3%	O=C1c2cccc([N+](=O)[O-])c2C(=O)N1c1c[nH]c(=O)[nH]c1=O
-17.7%	CCCSCCCNC(=O)CN1C(=O)COc2ccc(S(=O)(=O)N3CCCCCC3)cc21

Pulled by structure from the entries so far (four):
VDR inh	SMILES
-8.7%	O=S(=O)(N1CCCCC1)N1CCCN(S(=O)(=O)N2CCCCC2)CC1
-6.5%	COCCCNC(=S)NCCNc1nc2c(C)c(C)ccc2cc1C#N
-17.7%	CCCSCCCNC(=O)CN1C(=O)COc2ccc(S(=O)(=O)N3CCCCCC3)cc21
-18.3%	COc1cccc(NC(=O)c2ccccc2N(Cc2ccccc2)S(C)(=O)=O)c1

Look-ups from above:
`CC1CN(C(=S)Nc2ccc(SC(F)F)cc2)CC(C)O1` (centres undefined) in VDR inh is listed with 1.1%
`O=S(=O)(N1CCCCC1)N1CCCN(S(=O)(=O)N2CCCCC2)CC1` in VDR inh is listed with -8.7%

More structures
VDR inh	SMILES
10.5%	COCCCNc1nc(N)c([N+](=O)[O-])c(Nc2cc(OC)ccc2OC)n1
10.4%	CCc1cccc(NC(=O)c2cccc3c2C(=O)N(CC2CCCO2)C3)c1 (centres undefined)
-0.6%	COc1ccc(Cl)cc1NC(=O)CSc1nc(=O)n(CCN(C)C)c2c1CCCC2
-10.6%	O=C(OCC1CC(c2ccccc2)=NO1)c1ccc(Br)cc1 (centres undefined)
-18.3%	O=C(Nc1ccc(Br)cc1)c1cccnc1N1CCOCC1
-4.8%	COc1ccc(OC)c(C2N(c3cc(C)on3)C(=O)C3CCCN32)c1 (centres undefined)
7.8%	COc1ccc(N2CCN(Cc3cc(=O)oc4cc(C)c(Cl)cc34)CC2)cc1
-11.9%	Cc1ccccc1C(=O)NC(=S)NCCN1CCOCC1
-11.5%	COc1ccc(OC)c(N(CC(=O)Nc2ccccc2F)S(=O)(=O)c2ccccc2)c1
-29.0%	Cc1ccc(C(C)(C)C)cc1S(=O)(=O)Nc1nc2ccccc2nc1Cl
10.8%	Cn1c(SCC(=O)c2ccccc2)nnc1-c1ccco1
-12.9%	Cc1cc(C)n(C(=O)c2c([N+](=O)[O-])c(C)nn2C)n1
-2.4%	O=C(COc1ccc(Br)cc1)Nc1ccc(CN2CCOCC2)cc1
-12.3%	Fc1cc(NCc2ccccc2)nc(NCc2ccccc2)n1
-12.7%	CC(C)CN(C)C(=O)CCc1nnc(Cc2cccc(C(F)(F)F)c2)o1
10.3%	O=C(NC1CCCCC1)c1ccc(CSc2nc3cccnc3n2Cc2ccccc2)cc1
-15.2%	Cc1[nH]c2ccccc2c1C(=O)COC(=O)c1ccc[n+]([O-])c1
70.8µM*	COc1ccccc1-c1nn2c(C3COc4ccccc4O3)nnc2s1 (centres undefined)
3.7%	O=C(OCc1nnc(-c2ccccc2)o1)C1CCN(C(=O)c2ccc(Cl)cc2)CC1
2.2%	Cc1ccc(C)c2[nH]c(=O)c(CCNC(=O)c3ccc(Br)o3)cc12
-4.9%	CCCn1nnnc1NCc1cccc(Cl)c1
13.0%	CCc1ccc(C2c3c(oc4ccc(F)cc4c3=O)C(=O)N2c2nc(C)c(C(=O)OC)s2)cc1 (centres undefined)
-7.8%	Cc1ccc(-n2ncc3c(=O)n(CC(=O)N4CCN(c5ccccc5)CC4)cnc32)cc1
-2.4%	COc1cccc(NC(=O)/C=C/c2ccc([N+](=O)[O-])cc2)c1
8.6%	COc1cc(/C=N/NC(=O)c2ccc(=O)[nH]n2)ccc1O
6.1%	COC(=O)N/N=C\C=C\c1ccc2c(c1)OCO2
3.1%	CCOc1ccccc1CN1CCN(CCCn2cccn2)CC1CCO (centres undefined)
11.0%	Cc1cc(NC(=O)C(C)C)ncc1NC(=O)c1cccc(F)c1
-3.7%	CCOc1ccccc1N1CCN(C(=O)CNC(=O)c2ccc(OC)c(OC)c2)CC1
-16.0%	CCCn1c(C(C)Nc2nc(C)cs2)nc2cc(Cl)c(Cl)cc21 (centres undefined)
?	O=C(CCCN1C(=O)/C(=C/c2ccc3c(c2)OCO3)SC1=S)Nc1ccc(C(=O)O)cc1
0.3%	Cc1ccc(C)c(NC(=O)CN(C)C(=O)c2ccc(S(=O)(=O)N(C)c3ccccc3)cc2)c1
-3.3%	C=CCSc1n[nH]c(-c2cccs2)n1
-23.4%	COc1ccccc1Nc1cc(C(=O)NC2CCC(C)CC2)c2ccccc2n1 (centres undefined)
-7.5%	O=C(NN1CCOCC1)c1cc(-c2ccc(Br)s2)nc2ccccc12
-11.1%	N#CC1(C#N)C(C(N)=O)C1c1ccccc1 (centres undefined)
-2.0%	Fc1cccc(Cn2ccc(-c3ccc4c(c3)OCO4)n2)c1
17.4%	COc1cn(CC(=O)Nc2ccc(F)cc2)c(CN2CCCCC2)cc1=O
-19.2%	CC1CCN(c2ccccc2NC(=O)c2ccc([N+](=O)[O-])o2)CC1
17.5%	Cc1ccnc(NC(=O)c2cc3c(=O)oc4ccc(C)cc4c3s2)c1
-8.0%&-2.6%	COCCCNC(=O)c1cc2c(-c3cccc(OC)c3)nn(C)c2s1
9.2%	COc1ccc(N=Cc2ccccc2O)cc1
26.3%	CCC(=O)Nc1ccc(CC)cc1-c1nc2ccccc2n(CC(=O)Nc2ccccc2C)c1=O
0.5%	COc1ccc2[nH]cc(C(O)CN3CCC(C(N)=O)CC3)c2c1 (centres undefined)
4.2%	CCc1nnc(NC(=O)CSc2nnc(Cc3cc(=O)[nH]c(=O)[nH]3)n2-c2cccc(OC)c2)s1
-10.1%	CCOC(=O)c1oc2c(CN3CCN(C)CC3)c(O)ccc2c(=O)c1-c1ccccc1OC
5.1%	C/C(=N\NC(=O)c1cccc(Cl)c1)c1cccc(NC(=O)c2ccco2)c1
1.3%	Cc1cccc(NC(=O)C2C3C=CC(O3)C2C(=O)O)c1C (centres undefined)
6.1%	COc1ccc(C=NN=C2c3ccccc3-c3ccccc32)cc1OC
20.2%	CCOc1ccc(C(=O)NC(=S)NCCCN2CCOCC2)cc1
-17.2%	CC1(C)CC(=O)C2=C(C1)OC(N)=C(C#N)C2c1cn(-c2ccccc2)nc1-c1ccccc1 (centres undefined)
-4.2%	COc1c(C)cc(Br)cc1C(=O)Nc1ccc(-c2nc3ncccc3o2)cc1
-11.0%	Nc1cccc(C2=Nc3cccc4cccc(c34)N2)c1
2.3%	CCN(CC)c1nc(C)nc2c1cnn2CCc1ccccc1
5.4%	CCOc1cc(N2CCOCC2)c(OCC)cc1NC(=O)c1c(-c2ccccc2)noc1C
-4.5%	Cc1nn(C(=O)c2ccccc2)c(C)c1S(=O)(=O)N1CCOCC1
-0.7%	CCCCC/C=C\C/C=C\C[C@H](O)/C=C/C=C\CCCC(=O)O
-2.3%	CCC(=O)OCCCNc1nc(-c2ccc(Cl)cc2)nc2ccccc12
10.8%	C/C(=N\NC(=O)CCC(=O)Nc1ccc(C)c(C)c1)c1cccs1
-15.9%	Cc1cc(C)c(OCC(=O)OCC(=O)NCCC2=CCCCC2)c(C)c1
6.6%	NC(=O)NC(=O)COC(=O)c1ccc(OC(F)F)cc1
7.0%	Cc1nc2ncnn2c(C)c1CCC(=O)NCc1ccco1
-0.9%	O=C(Nc1ccc2c(c1)OCO2)N1CCCc2ccccc21

Some of the compounds tested, so the mix of outcomes need not match the whole.
